Bioassay records from PubChem.
NPYLR7 ag: activates Aedes aegypti NPYLR7 receptor | HEK293T NPYLR7/Galpha15, GCaMP6s calcium fluorescence | AID 1259423 | actives 0.15% (n = 270,000) | activation, % at 10 µM; in the data active = activation above about 40%;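 also: 0% = vehicle and 100% = reference agonist at the receptor; some compounds past the cut are filed as inactive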
NPYLR7 ag max-min: further read-out of NPYLR7 ag, marked with its call; activation, %; measured here: Max-Min RFU normalised activation; some inactives read as strong as hits;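 span of the calcium signal over five minutes; 0% = vehicle and 100% = native peptide agonist; compound fluorescence can raise it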
* hit, by the source's call; & = joins results of further samples.

SMILES	NPYLR7 ag	NPYLR7 ag max-min
CC1(c2ccc(Br)cc2)NN=Cc2nc3ccccc3c(=O)n21 (configuration not stated)	-1	-2
N#Cc1c(N)n(-c2ccc(Br)cc2F)c2nc3ccccc3nc12	5	1
C=CCN(Cc1ccc(Cl)s1)C(=O)Cn1ccccc1=O	5	9
CSc1nnc2c(n1)OC(c1cn[nH]c1-c1ccccc1)Nc1ccccc1-2 (configuration not stated)	2	0
CCOc1ccc(C(=O)N(C)Cc2cccc3cnccc23)o1	-4	-7
COC(=O)c1cc(OC)c(OC)cc1NC(=O)C1CC1	-8	-14
CCOC(=O)CC(=O)Nc1cccc(-c2cccc(-c3cc(OC)ccc3OC)n2)c1	-7	-12
COCCNCc1cccn1Cc1ccccc1	29	28
COC(=O)[C@H]1C[C@@H](O)CCN1C(=O)CN1C[C@@H](C)O[C@@H](C)C1	3	0
Cc1ccnc(NCCNCc2nnc(-c3ccc(C)n3C)o2)c1	2	-2
COc1cccc(OCCCCCCOc2cccc(OC)c2)c1	3	2
COc1cccc(Cn2cccc2CN(Cc2ccccc2)C(=O)CN(CC(C)C)S(=O)(=O)c2cc(Cl)ccc2Cl)c1	24	27
CS(=O)(=O)c1ccc(C(=O)N(Cc2ccccn2)c2nc3ccc([N+](=O)[O-])cc3s2)cc1	-2	-5
Cc1sc2nc(C(C)Sc3nnnn3Cc3cccs3)[nH]c(=O)c2c1C (configuration not stated)	-2	8
CC1=NN(Cc2cccc3ccccc23)c2nc3c(c(=O)n(C)c(=O)n3C)n2C1C (configuration not stated)	7	11
COc1cc(C)c(C)cc1S(=O)(=O)NCCc1csc2nc(-c3ccccc3C)nn12	-2	-3
CCOC(=O)c1c(NC(=O)c2ccco2)sc2c1Cc1ccccc1-2	4	-2
NC(=O)CC(NC(=O)c1ccccc1Cl)C(=O)O (configuration not stated)	-7	-10
Cc1cc(C(=O)N(CCCN2CCOCC2)c2nc3ccc(F)cc3s2)no1	4	3
CC1=C(c2c(C)sc(C)c2C(=O)O)C(C)CCC1 (configuration not stated)	-5	-6

In the list so far, three contain two or more sulfur atoms.
SMILES	NPYLR7 ag	NPYLR7 ag max-min
CS(=O)(=O)c1ccc(C(=O)N(Cc2ccccn2)c2nc3ccc([N+](=O)[O-])cc3s2)cc1	-2	-5
Cc1sc2nc(C(C)Sc3nnnn3Cc3cccs3)[nH]c(=O)c2c1C (configuration not stated)	-2	8
COc1cc(C)c(C)cc1S(=O)(=O)NCCc1csc2nc(-c3ccccc3C)nn12	-2	-3

New compounds follow:
SMILES	NPYLR7 ag	NPYLR7 ag max-min
COc1cc(OC)c(C2Nc3ccccc3-c3nnc(SC)nc3O2)c(OC)c1 (configuration not stated)	-2	-5
CNC(=S)NN=C(CCC(=O)O)c1cccs1	4	3
CCOC(=O)C1CCN(C(c2cccc(Cl)c2)C2Sc3nc(C)nn3C2=O)CC1 (configuration not stated)	0	-2
COc1ccc(C(=O)C2CCCN(C(=O)c3ccc4nc[nH]c4c3)C2)cc1F (configuration not stated)	20	7
Cc1cc(N2C(=O)c3oc4ccc(F)cc4c(=O)c3C2c2cccc([N+](=O)[O-])c2)no1 (configuration not stated)	-4	-5
COc1cc(C(=O)N2CCC(n3c(=O)oc4ccc(Cl)cc43)CC2)cc(Cl)n1	27	20
COC(=O)c1c(SC(c2ccccc2)c2ccccc2C)nc(=O)[nH]c1C (configuration not stated)	7	5
Cc1ccccc1OCC(=O)N=Nc1c(O)[nH]c2ccc([N+](=O)[O-])cc12	-8	-13
Cc1nn(S(=O)(=O)c2ccc(F)cc2)c(C)c1S(=O)(=O)N1CCC(C)CC1	4	1
CCCCCCCC(=O)NC(Cc1ccccc1)c1nnc(SCc2ccccc2)n1-c1ccc(C)cc1 (configuration not stated)	13	19
COC(=O)c1c(C)[nH]c(C(=O)OCC(=O)N2CCCCCC2)c1C	13	4
COc1cccc(C(=O)NC(C(=O)N2CCCC2)C2CCN(C(=O)Cc3ccccc3)CC2)c1 (configuration not stated)	3	3
COc1ccc(N2C(=O)/C(=C\c3ccccc3O)SC2=S)cc1	-12	-13
Cc1ccc(/C=N\n2c(-c3ccc(O)c(C(N)=O)c3)csc2=NC2CC2)c(C)c1	-2	-4
O=C(O)C=Cc1ccc(I)o1	-3	-3
Cc1cc(NC(=O)CSc2ncnc3sc4c(c23)CCC4)no1	11	8
CC(C)CCOC(C)C(=O)NCC1CC12CCc1ccccc12 (configuration not stated)	1	0
CCCc1c(C(=O)NCc2ccco2)nnn1-c1ccccc1	1	2
C/C=C(\C)C(=O)N1CCN(CCCOC(c2ccc(Cl)cc2)c2ccc(Cl)cc2)CC1	23	25
COc1ccc(OCCn2c(CCNC(=O)c3ccco3)nc3ccccc32)cc1	11	12
O=C(NCCc1ccc(Cl)s1)NCCc1ccc(Cl)s1	8	5
CCOc1ccc(-c2nc(CSc3nc(-c4cccc(OC)c4)cc(=O)[nH]3)c(C)o2)cc1	2	-2
CN(C)C(CNS(=O)(=O)CCc1ccccc1)c1cccs1 (configuration not stated)	2	1
O=C(O)c1c(S(=O)(=O)N[C@@H]2C[C@H]2c2ccccc2)sc2c1CCNC2	10	6
CC(C)Oc1cc(Br)cc(C(=O)Nc2cccnn2)c1	4&10	8&12
Cc1cc(C)c[n+](C2=C(c3c(C(C)C)[nH]n(-c4ccccc4)c3=O)C(=O)N(C(C)C)C2=O)c1	7	8
COc1cc2nc(C)sc2cc1NC(=O)NCC(C)(C)C(N)=O	6	6
C=CCNc1ncc(C(=O)NCC(C)Cn2cccn2)s1 (configuration not stated)	0	-1
CCC(c1nc2ccccc2c(=O)n1CCOC)N1CCNCC1 (configuration not stated)	2	10
O=C(c1ccccc1Br)N(Cc1ccc(OS(=O)(=O)c2ccc(F)cc2)cc1)Cc1ccco1	-6	-5
CCCCCCCCCCCCCCCC(=O)Nc1ccc2[nH]cc(CCN3CCN(c4ccc(OC)cc4)CC3)c2c1	8	-4
COc1cccc(-c2nnc(NC(=O)C(Cc3ccccc3)NC(=O)Nc3c(C(C)C)cccc3C(C)C)s2)c1 (configuration not stated)	-7	-11
Cc1c(C(=O)N2CCN(C)C3(CCN(C)CC3)C2)nnn1Cc1ccccc1	3	1
Cc1noc(C)c1C1CCCN1Cc1cccc(Cn2cccn2)c1 (configuration not stated)	4	3
O=C(CCN1CCC(N2CCCC2=O)CC1)N1CCCc2ccccc21	-7	-7
Cc1ccc(-c2nnc(Nc3cccc(O)c3)c3ccccc23)cc1S(=O)(=O)N(C)C	-14	-20
CN(C)CCn1ccnc1-c1coc(-c2ccccc2)n1	11	1
O=C(O)c1cccc(CSc2nc(-c3ccccc3)cc(N3CCOCC3)n2)c1	16	15
CSCCC1CC(=O)Nc2n[nH]c(C3CCC3)c21 (configuration not stated)	-3	-3
CCc1ccc(S(=O)(=O)Nc2ccc(-c3ccc(=O)n(C)n3)cc2)s1	0	-1

Reformatted: results already given.
Each structure is followed by: NPYLR7 ag | NPYLR7 ag max-min
C=CCNc1ncc(C(=O)NCC(C)Cn2cccn2)s1 (configuration not stated)
→ 0 | -1
CCC(c1nc2ccccc2c(=O)n1CCOC)N1CCNCC1 (configuration not stated)
→ 2 | 10

Later entries.
SMILES	NPYLR7 ag	NPYLR7 ag max-min
Cc1ccn2c(=O)nc(SCC(=O)NC3CCCCC3)nc2c1	4	2
CC(c1ccncc1)N(C)C(=O)Cc1ccc(O)c(Cl)c1 (configuration not stated)	-6	-7
c1ccc([C@@H]2C[C@@H]3C[C@H](N4CCN(C5COC5)CC4)C[C@@H]3CO2)cc1	2	5
COc1ccccc1C(=O)Nn1cnc2c(cnn2-c2ccc(C)c(C)c2)c1=O	1	-2
O=C(CCC1CCN(C(=O)C(=O)c2ccccc2)CC1)Nc1ccc(F)c(Cl)c1	18	10
O=C(OCC(=O)N1CCCC1)c1c2c(nc3ccccc13)C(=Cc1ccc3c(c1)OCO3)CC2	18	9
COC(=O)c1ccc(NC(=O)c2c([N+](=O)[O-])cnn2C)cc1	-6	-7
Clc1ccc(-c2nc(CSc3cccc(Cl)c3)cs2)cc1	25	30
Cn1cc(Cl)cc1C(=O)c1c(-c2ccncc2)[nH]n(C)c1=O	-2	-4
CC1(C(=O)Nc2ccc3c(c2)OCO3)CCN1C(=O)C1(c2ccccc2)CC1 (configuration not stated)	2	4
COc1ccccc1-n1ncc2c(C)nnc(SCC(=O)Nc3ccc4c(c3)OCO4)c21	13	6
O=C(C1CC2(CCNCC2)CN1)N1CCc2c(nc(CC3CC3)[nH]c2=O)C1 (configuration not stated)	20	6
Cc1cccc(C(C)C)c1NC(=O)CSc1nc2ccccc2o1	13	13
O=C1C2=C(CCCC2)C(=O)N1c1cccc(OCCBr)c1	8	8
CCSc1nc(CC(=O)NC2CCCc3ccccc32)cs1 (configuration not stated)	11	15
O=C(C1CCCC1)N1CCSC1=Nc1ccc(Cl)c(Cl)c1	1	-4
Cc1cc(C)n(-c2cc(NCCNC(=O)Cc3ccc(F)cc3)nc(C)n2)n1	-10	-12
O=c1c(Oc2ccc(Cl)cc2)coc2cc(O)ccc12	-2	-5
Cc1c2c(n(Cc3cccc(F)c3)c1C(=O)N1CCN(c3ccccc3F)CC1)CCCC2	24	13
O=C(c1cscn1)N1CCSc2ncccc21	2	-1

Single records, as listed above:
`COc1cc(C(=O)N2CCC(n3c(=O)oc4ccc(Cl)cc43)CC2)cc(Cl)n1` reads NPYLR7 ag: 27; NPYLR7 ag max-min: 20
`COc1ccccc1C(=O)Nn1cnc2c(cnn2-c2ccc(C)c(C)c2)c1=O` reads NPYLR7 ag: 1; NPYLR7 ag max-min: -2
`Cc1ccc(/C=N\n2c(-c3ccc(O)c(C(N)=O)c3)csc2=NC2CC2)c(C)c1` reads NPYLR7 ag: -2; NPYLR7 ag max-min: -4

Continued.
SMILES	NPYLR7 ag	NPYLR7 ag max-min
CCOC(=O)c1ccc(N=C2SC(C(=O)Nc3cccc(OCC)c3)CC(=O)N2C)cc1 (configuration not stated)	3	1
O=C1C2C3C=CC(C3)C2C(=O)N1c1cc(F)ccc1F (configuration not stated)	-7	-11
COC(=O)CNC(=O)c1cccc(NC(=O)c2c(F)cccc2F)c1	7	5
COCCN(CC(=O)N(Cc1cccn1Cc1ccc(F)cc1)C1CCCCC1)C(=O)C(C)(C)CCl	-11	-10
COc1ccc(F)c(CN2CCCC(C(=O)c3ccc(OC)c(OC)c3)C2)c1 (configuration not stated)	6	-3
COc1ccc(OC)c(C(=O)c2oc3ccc(OC)cc3c2N)c1	3	5
CCOC(=O)c1cc(C=O)c2sc3ccccc3n12	31	20
NC(=O)N1CCC(C(=O)NC2CCc3nccn3C2)CC1 (configuration not stated)	0	2
O=C(C1CCN(c2nccc(C(F)(F)F)n2)CC1)N1CC(=O)N2CCc3cc(F)ccc3C2C1 (configuration not stated)	25	17
Cc1cc(C(=O)N2CCOC(C(F)(F)F)C2)c2c(=O)[nH]c(=O)n(C)c2n1 (configuration not stated)	-3	26
O=[N+]([O-])c1ccccc1SN1CCc2ccccc2C1	7	6
Cc1cccc(OCc2nc(CN(CCN3CCOCC3)C(=O)c3cccc(Br)c3)cs2)c1C	-7	1
COCc1ccc(C(=O)Nc2ccccc2C(=O)N(C)c2ccccc2)o1	21	7
COc1ccc(Br)c(C=Nc2ccc(C(=O)O)cc2C)c1O	-3	-7
CCC(C(=O)N(CC(=O)N1c2ccccc2-n2cccc2C1c1ccc(F)cc1)C(C)C)c1ccccc1 (configuration not stated)	-5	3
C#CCn1c(=NC(=O)c2ccn(CC)n2)sc2cc3c(cc21)OCCO3	-3	-5
COc1cc(C=C(C#N)C(=O)N2CCCC2)ccc1OCC(=O)Nc1ccc(Br)cc1	-3	-12
O=S(=O)(c1cccc(F)c1)N1CCN(c2ccccc2)CC1	16	10
CCOC(=O)CSc1ncnc2c1nnn2C	0	22
Cc1cccc(OCCNC(=O)Nc2ccc(N3CCCC3)nc2)c1	4	2
CCc1nc2ccc(C(=O)Nc3ccc(NC(C)=O)cc3)cn2c1N(CCN(C)C)CC1CC1	-2	-8
CCc1nnc(CN(CC)C(=O)CSc2nnc(C)s2)o1	0	-4
CCCC(=O)Nc1cccc(NC(=O)c2ccc(-n3cnnc3)cc2Cl)c1	3	2
Cc1c[nH]c(C(=O)N2CCCC(Nc3ccc(F)c(F)c3)C2)c1 (configuration not stated)	9	5
COc1ccc(-c2ccc(CCC(=O)NCCCOC(C)C)n2-c2ccc(SC)cc2)cc1	2	2
C=CCn1c(=S)[nH]c2scc(-c3cccs3)c2c1=O	3	4
Oc1c(Cl)cc(Cl)cc1C1=NNC(c2ccccc2F)C1 (configuration not stated)	-2	-1
CC(C)COC(=O)C(C)Sc1n[nH]c(=O)[nH]c1=O (configuration not stated)	12	9
Cc1ccc(/C=N\n2c(-c3ccc(Cl)cc3)csc2=NCC2CCCO2)o1 (configuration not stated)	-2	-4
CCSc1nc(CC(=O)N(C)CC2Cc3ccccc3O2)cs1 (configuration not stated)	5	-2
CSCc1ccc(C(=O)N(C)C(C)Cc2cc(C)ccn2)o1 (configuration not stated)	0	-3
COc1ccc(NC(=O)Cn2c3ccccc3c3ncn(Cc4ccccc4)c(=O)c32)cc1OC	-2	-4
O=C(NCCCc1ccccc1)c1cc(=O)c(OCc2ccc(F)cc2)co1	2	2
COc1cncc(-c2ccc3nnc(-c4ccc(OCCCN(C)C)cc4)n3c2)c1	14	1
Cc1ccccc1S(=O)(=O)NC(=O)C1(C)CCN1C(=O)c1ccc(C(C)(C)C)cc1 (configuration not stated)	0	-1
CCOC(=O)NCC(=O)N(Cc1ccc(C(F)(F)F)cc1)C1CC1	3	-1
CN(CC(=O)Nc1cnc2n1CCCC2)Cc1cccnc1	8	6
Clc1ccc2nc(N3CCN(c4ccccc4)CC3)nc(-c3ccccc3)c2c1	3	0
CCCc1cc(N2CCN(c3cccc(C)n3)CC2)n2nc3nc(C)cc(C)c3c2n1	2	5
COc1ccc(C=CC(=O)c2ccc(C)o2)cc1OC	4	19

A portion of the library. The share of hits here may be higher or lower than overall.
